Screening data: PubChem, National Center for Advancing Translational Sciences (NCATS)
NS1 inh: qHTS Assay for Inhibitors of Influenza NS1 Protein Function. S. cerevisiae slowed by influenza A NS1, growth recovery by OD600. Potency, µM (series often up to 46.1 µM), for the others: top-dose activity, positive = more growth. actives 0.4% (n = 270,000). AID 2326, 2010; note: actives are rising curves; nearly all actives have a fitted effect of over 50% in size
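Read-out: OD600 growth recovery of NS1-expressing budding yeast. Cells grown overnight at 30C in -URA glucose medium, washed, resuspended and diluted 1:100 in 2% galactose assay medium, pH 6.0. Same strain lacking NS1 served as positive control.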
2A StopGo: High Throughput Screening for Foot and Mouth Disease Virus Antivirals. human cells with a luciferase reporter of 2A StopGo recoding; control for the full effect not named in the record. Potency, µM (top dose mostly 57.9 µM), for the others: at the top dose signal change, negative = less light. actives 1.2% (n = 410,000). AID 1159524, 2015; active = well fitted falling curve with a large enough effect; inconclusive = small, poorly fitted or top-dose-only effect; inactive = no such curve, though single readings can be large or run the other way; tested in HEK293T cells; note: % is set by controls: 0 for no effect and ±100 for the full control effect; nearly all actives have a fitted effect of over 45% in size; luciferase light after 4 h
Cruzain noTriton: qHTS Assay for Promiscuous and Specific Inhibitors of Cruzain (without detergent); purified cruzain, Z-FR-AMC fluorescence, no detergent; actives 2.3% (n = 200,000); Potency, µM, without a hit: max response, negative = inhibition, usual class: inhibitors; AID 1476, 2009; Cruzipain (Trypanosoma cruzi), P25779; active = well fitted curve in the direction sought with a large enough effect; inconclusive = small, poorly fitted or top-dose-only effect, or another doubt; inactive = no such curve, though single readings can be large; an effect the other way counts as inactive or inconclusive;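 note: plate controls were enzyme without inhibitor for no effect and buffer without enzyme for full effect; nearly all actives have a fitted effect of over 40% in size; top concentration of the series not given in the record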
Target sequence (P25779 123-467 limits assumed): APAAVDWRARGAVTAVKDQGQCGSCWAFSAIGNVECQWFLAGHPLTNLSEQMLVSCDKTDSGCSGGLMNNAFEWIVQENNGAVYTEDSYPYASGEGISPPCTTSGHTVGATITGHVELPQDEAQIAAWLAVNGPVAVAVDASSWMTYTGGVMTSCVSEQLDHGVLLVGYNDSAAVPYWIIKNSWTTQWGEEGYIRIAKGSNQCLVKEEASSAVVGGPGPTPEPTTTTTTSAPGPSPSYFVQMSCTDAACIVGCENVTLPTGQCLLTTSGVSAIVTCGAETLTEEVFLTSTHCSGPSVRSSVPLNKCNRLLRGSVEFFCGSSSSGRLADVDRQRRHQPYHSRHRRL
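Detergent-free condition (0.00005% Triton X-100) in acetate buffer pH 5.5 with DTT. 1.5 nM enzyme and compound were pre-mixed 15 min, then 2 uM Z-FR-AMC substrate added; reaction progress from fluorescence change between first and third reads (60 s).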
Cruzain Triton: qHTS Assay for Promiscuous and Specific Inhibitors of Cruzain (with detergent); Cruzipain (Trypanosoma cruzi), P25779; actives 0.43% (n = 200,000); Potency, µM, for inactives: max response, negative = inhibition, usual class: inhibitors; purified cruzain, Z-FR-AMC fluorescence, 0.01% Triton; active = well fitted curve in the direction sought with a large enough effect; inconclusive = small, poorly fitted or top-dose-only effect, or another doubt; inactive = no such curve, though single readings can be large; an effect the other way counts as inactive or inconclusive;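 note: plate controls were neutral wells for no effect and buffer without enzyme for full effect; nearly all actives have a fitted effect of over 40% in size; top concentration of the series not given in the record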
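In this qHTS format, compounds are incubated with 1.5 nM cruzain for 15 min at room temperature before 2 uM Z-FR-AMC is added. Release of AMC is followed at 360/450 nm, and progress is taken as the 60 s fluorescence difference.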
SARS PLpro yeast: qHTS of Yeast-based Assay for SARS-CoV PLP. Potency, µM (doses to about 32.9 µM), without a hit: at the top dose activity, positive = growth rescue. S. cerevisiae expressing SARS-CoV PLpro, growth rescue; control for the full effect not named in the record. actives 0.19% (n = 330,000). AID 485353, 2010; note: 0% is about no effect; nearly all actives have a fitted effect of over 55% in size; growth read by luminescence after 48 h
RE007 growth inh: qHTS Assay for Inhibitors of the HIV-1 protein Vpr; S. pombe RE007 Vpr strain, BacTiter-Glo ATP luminescence, 24 h; control for the full effect not named in the record; Potency, µM (series often up to 92.2 µM), for inactives: top-dose activity change, negative = less growth; actives 0.21% (n = 360,000); AID 651644, 2012; active = well fitted falling curve with a large enough effect; inconclusive = small, poorly fitted or top-dose-only effect; inactive = no such curve, though single readings can be large or run the other way;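 note: % is set by controls: 0 for no effect and ±100 for the full control effect; nearly all actives have a fitted effect of over 50% in size; the assay follows cell death caused by Vpr and the record does not say whether a fall means rescue or toxicity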
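Fission yeast strain RE007, carrying one chromosomally integrated HIV-1 vpr copy, was seeded at OD 0.01 in PMG+AL medium with 23 nL pinned compound. After 24 h at 30 °C and 99% humidity, viability was read by BacTiter-Glo luminescence.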
MARV entry inh: qHTS for inhibitors of binding or entry into cells for Marburg Virus. Marburg virus pseudotyped entry inhibition, cell reporter; control for the full effect not named in the record; about a third of the inactives were read at about 46 µM. Potency, µM (series often up to 37.8 µM), without a hit: at the highest dose activity change, negative = inhibition, most hits filed as inhibitors. actives 1.8% (n = 300,000). AID 540276, 2011; active = well fitted inhibition curve with a large enough effect; inconclusive = small, poorly fitted or top-dose-only effect, or effect the other way; inactive = flat fitted curve, though single readings scatter; tested in HEK293 cells; about a fifth of its hits are not listed in these tables; note: % is set by controls: 0 for no effect and ±100 for the full control effect; luciferase read-out
Lassa entry inh: qHTS for Inhibitors of binding or entry into cells for Lassa Virus. Lassa virus pseudotype entry inhibition, cell reporter; control for the full effect not named in the record. Potency, µM (doses to about 37.9 µM), for inactives: top-dose activity change, negative = inhibition, actives largely listed as inhibitors. actives 1.2% (n = 300,000). AID 540256, 2011; active means well fitted inhibition curve with a large enough effect; inconclusive means small, poorly fitted or top-dose-only effect, or effect the other way; inactive means flat fitted curve, though single readings scatter; tested in HEK293 cells; note: % is set by controls: 0 for no effect and ±100 for the full control effect; nearly all actives have a fitted effect of over 50% in size; luciferase read-out
* hit, by the source's call; ? = inconclusive; . = no result given; [ ] = remark or other dose. Unless noted, calls come from the whole dose curve; as a rule, active means well fitted rising curve with a large enough effect; inconclusive means small, poorly fitted or top-dose-only effect; inactive means no such curve, though single readings can be large or run the other way. Potency is the fitted concentration of half-maximal effect.

SMILES	NS1 inh	2A StopGo	Cruzain noTriton	Cruzain Triton	SARS PLpro yeast	RE007 growth inh	MARV entry inh	Lassa entry inh
Cc1ccc(NC(=O)CNc2ccccc2CN(C)C2CCCCC2)cc1	-31%	-11%	.	.	6%	-9%	.	.
O=C(O)c1nn(CC(=O)N2CCN(S(=O)(=O)c3ccc(Cl)cc3)CC2)c(=O)c2ccccc12	-2%	0%	.	.	0%	39%	-6%[46.1 µM]	11%
O=C(O)c1ccc2c(c1)C(=O)N(CCc1ccccc1)C2=O	-25%	3%	.	.	4%	20%	.	.
Cc1cccc(NC(=O)Cn2c(C)c(C#N)c3ccccc32)c1C	-6%	-3%	-5%	-0.2%	-4%	-5%	?	?
CCc1nc(NCCN2CCOCC2)c2oc3ccccc3c2n1	-12%	-24%	-3%	-5.0%	1%	-12%	1%	-7%
O=C(N=C1c2ccccc2CN1c1ccccc1)c1cccc([N+](=O)[O-])c1	-28%	18%	?	-3.8%	-20%	4%	?	30%
CCn1c(CC(=O)Nc2ccccc2)nnc1SCC(=O)Nc1nncs1	-2%	8%	.	.	2%	6%	22%[46.1 µM]	7%[46.1 µM]
COc1ccccc1CNc1nc2c(S(=O)(=O)c3ccc(C)c(C)c3)nnn2c2ccc(Cl)cc12	.	-11%	-6%	0.3%	.	.	0%[46.1 µM]	.
COc1ccc(C)c2sc(=NC(=O)c3cccc(N4C(=O)CCC4=O)c3)n(C)c12	3%	29%	.	.	0%	4%	.	.
Cc1ccc(/C=N\NC(=O)C2CC(=O)N(c3ccccc3)C2)o1 (stereo unspecified)	4%	37%[activator]	.	.	0%	-6%	-2%[46.1 µM]	-8%
S=C(Nc1ccc2c(c1)OCO2)Nc1ccc2c(c1)OCO2	18%	60%[activator]	1%	-6.2%	-30%	-29%	16%	12%
NN=C1C(=O)c2cccc3cccc1c23	.	28%	.	.	.	-27%	-12%[46.1 µM]	-29%[46.1 µM]
Cc1ccnc(SCc2cc(=O)c(OC(=O)c3cccs3)co2)n1	.	12%	.	.	0%	9%	?	0%[46.1 µM]
Cn1c(=O)c2c(nc(CN3CCN(C(c4ccccc4)c4ccccc4)CC3)n2CC(N)=O)n(C)c1=O	-3%	-7%	5%	4.4%	7%	-8%	-2%	1%
C=CCNC(=O)NC(=O)COC(=O)[C@H](C)NS(=O)(=O)c1c(C)c(C)cc(C)c1C	-11%	5%	.	.	2%	1%	.	.
OCC(O)C(O)C(O)C(O)C1NCCS1 (stereo unspecified)	?	.	-3%	2.7%	8%	-9%	-5%	3%
CCO/C=N/c1c(C#N)c2c(c(=S)n1C)COC(C)(C)C2	8%	-8%	-4%	-2.4%	0%	6%	17%	0%
O=C(c1ccc2c(c1)N(Cc1ccc(Cl)cc1)C(=O)c1ccccc1S2(=O)=O)N1CCN(c2ccccn2)CC1	.	-24%	0%	2.2%	.	.	-5%[46.1 µM]	2%[46.1 µM]
Cc1c(Cl)cccc1NCC(=O)Nc1ccc(Cl)cc1F	-24%	9%	-3%	-6.8%	-81%	?	-11%	2%
CSc1nnc2c(n1)OC=Nc1ccccc1-2	-7%	-2%	-7%	-5.9%	-4%	7%	22%	-3%
COc1ccccc1NC(=O)c1ccc(N)cc1	-6%	.	-1%	2.0%	6%	6%	14%	2%
CC(C)OCc1c(C(=O)Nc2nccs2)oc2ccccc12	.	-13%	.	.	0%	?	14%[46.1 µM]	-22%[46.1 µM]
CCCNC(=S)Nc1cccc(C(F)(F)F)c1	-6%	2%	-5%	-0.3%	18%	-7%	-3%	-5%
COc1ccc(OC)c(NC(=O)COC(=O)Cc2ccsc2)c1	.	0%	.	.	-7%	-25%	2%	4%
O=C(Nc1ccc(F)cc1)C1CCCCC1	-4%	10%	0%	4.7%	0%	-11%	3%	0%

The last two records of the section before lead into the next:
SMILES	NS1 inh	2A StopGo	Cruzain noTriton	Cruzain Triton	SARS PLpro yeast	RE007 growth inh	MARV entry inh	Lassa entry inh
COc1ccc(OC)c(NC(=O)COC(=O)Cc2ccsc2)c1	.	0%	.	.	-7%	-25%	2%	4%
O=C(Nc1ccc(F)cc1)C1CCCCC1	-4%	10%	0%	4.7%	0%	-11%	3%	0%
Cc1cc(NS(=O)(=O)c2ccc(NC(=O)NC3CCCCC3)cc2)no1	2%	16%	-22%	0.0%	6%	1%	-4%	4%
CCNC(=S)N1CCN(c2ccccn2)CC1	-6%	8%	-17%	-2.1%	9%	-5%	-5%[46.1 µM]	4%[46.1 µM]
CC1CN(C(=O)COc2ccc3ccccc3c2Br)CC(C)O1 (stereo unspecified)	-8%	-29%	.	.	?	13%	?	?
CCOc1ccccc1NC(=O)COC(=O)Cc1cccs1	-15%	-7%	.	.	-4%	-9%	-15%	10%
Cc1ccc(C(CC(=O)NCCCN(C)C)c2ccc(OC(C)C)cc2)cc1 (stereo unspecified)	3%	3%	.	.	-1%	6%	?	3%
CCCCn1c(O)c(C(C)=NCCc2c[nH]c3ccccc23)c(=O)[nH]c1=O	-7%	?	.	.	0%	-8%	.	.
O=C(CN1C(=O)C2CCCCC2C1=O)Nc1cc(C(F)(F)F)ccc1N1CCCC1 (stereo unspecified)	.	9%	.	.	.	-4%	1%	-16%
COc1ccc(-c2noc(N3CCC(C(=O)NCc4ccc(Cl)cc4)CC3)n2)cc1	-1%	0%	.	.	-5%	-12%	.	.
Cc1ccccc1Nc1c(-c2ccc(N3CCOCC3)cc2)nc2ccccn12	.	-13%	-4%	-17%	.	.	?	-13%[46.1 µM]
CCCCn1c(N)c(N(CCOC)C(=O)CN(C)S(=O)(=O)c2ccc(C)cc2)c(=O)[nH]c1=O	.	-24%	.	.	4%	-9%	?	-7%
O=C(Nc1ccc(S(=O)(=O)Nc2ncccn2)cc1)C12CC3CC(CC(C3)C1)C2	1%	-26%	.	.	-5%	2%	3%	9%
Cc1ccc(S(=O)(=O)NCC(C)n2cncn2)cc1C (stereo unspecified)	-1%	22%	.	.	1%	4%	20%[46.1 µM]	-7%[46.1 µM]
Cc1ccc(N2C(=O)CC(c3c[nH]c4ccccc34)C2=O)cc1 (stereo unspecified)	.	-2%	.	.	-2%	17%	7%[46.1 µM]	14%[46.1 µM]
COc1ccccc1NC(=O)N1CCCC1C(=O)NCc1ccc2c(c1)OCO2 (stereo unspecified)	-4%	22%	1%	1.4%	-2%	1%	12%	-9%
COc1ccc(CCc2nnc(CCC(=O)NCc3cnc4ccccn34)o2)cc1	6%	-10%	.	.	-1%	-14%	.	.
CN(C)S(=O)(=O)c1cccc(NC(=O)COc2cccc3ccccc23)c1	.	-26%	.	.	3%	29%	0%	-5%
Cc1ccc(S(=O)(=O)N2CCCCC2)cc1NC(=O)c1ccc2c(c1)OCO2	-15%	0%	-2%	-6.4%	8%	15%	-26%	-10%
CCc1ccccc1NC(=O)c1sc(-n2nc(C)c(Cc3ccccc3)c2C)nc1C	.	-22%	-5%	-2.1%	.	.	?	5%[46.1 µM]
O=C(NCC1CCCO1)c1cc(C(=O)C2CC2)c[nH]1 (stereo unspecified)	1%	0%	-9%	3.8%	-5%	-3%	-19%	-3%
CCOC(=O)C1=C(N)OC2=C(C(=O)CCC2)C12C(=O)N1c3c(ccc(C)c32)C(C)=CC1(C)C (stereo unspecified)	-32%	-18%	?	-8.5%	?	-5%	?	-16%
Cn1nc(C(=O)Nc2cccc(Cl)c2)cc1C(=O)Nc1cccc(Cl)c1	14%	-20%	.	.	2%	15%	.	.
COc1ccc(OCCn2ccnc2C)cc1	20%	1%	.	.	2%	1%	-9%	15%
Cc1oc(-c2ccccc2Cl)nc1CS(=O)CC(=O)NC1CC1 (stereo unspecified)	20%	2%	.	.	1%	-10%	.	.
Cc1noc(C)c1COc1ccc(C(=O)N2CCN(S(=O)(=O)c3cccc(F)c3)CC2)cc1	.	-24%	.	.	0%	0%	-3%[46.1 µM]	-27%[46.1 µM]
O=C(COC(=O)C1CCCCC1)Nc1ccc(N2CCCCC2)cc1	-20%	-8%	-5%	-16%	-13%	-11%	24%	?
(continued)
SMILES	NS1 inh	2A StopGo	Cruzain noTriton	Cruzain Triton	SARS PLpro yeast	RE007 growth inh	MARV entry inh	Lassa entry inh
COc1cc(SC)ccc1C(=O)OC1CCOC1=O (stereo unspecified)	1%	-7%	-10%	-3.3%	6%	-13%	-1%	15%
CS(=O)(=O)N1CC2CCCN2c2ccc(C(F)(F)F)cc21 (stereo unspecified)	.	-25%	.	.	0%	?	-12%[46.1 µM]	-14%
CSc1cccc(-n2nnc(-c3nsc(NC(=O)c4cccs4)n3)c2C)c1	.	12%	?	4.4%	.	.	.	?
O=C(CCCc1nc(-c2ccc(Cl)cc2)no1)NC1CCCC1	-16%	?	.	.	0%	-3%	?	?
O=C(CSc1n[nH]c(-c2ccccc2)n1)c1ccc(O)c(O)c1	-14%	38%[activator]	1%	-0.6%	-24%	-3%	4%	?
Cn1ncc(Cl)c1C(=O)Nc1nnc(C2CC2)s1	-37%	7%	.	.	-8%	-9%	8%[46.1 µM]	-7%[46.1 µM]
Cc1ccccc1NC(=O)COc1ccc2c(c1)OC(C)(C)CC2=O	0%	35%[activator]	.	.	-1%	2%	.	.
CCOC(=O)C1(CCOc2ccccc2)CCN(Cc2cc(OC)c(O)cc2Cl)CC1	-13%	?	.	.	-5%	7%	.	.
COCCCN(C(=S)NC(=O)C12CC3CC(CC(C3)C1)C2)c1c(N)n(Cc2ccccc2)c(=O)[nH]c1=O	-19%	-4%	.	.	-1%	3%	2%	-30%
COc1cccc(CNC(=O)c2cc(S(=O)(=O)N3CCOCC3)cn2C)c1	-5%	0%	.	.	-4%	8%	.	.
